Mtb MenB inh – M. tuberculosis MenB inhibitors, primary screen, biochemical, absorbance | 1,4-dihydroxy-2-naphthoyl-CoA synthase (Mycobacterium tuberculosis (strain ATCC 25618 / … | MenB enzyme assay, absorbance read-out; some hits fall short of the stated cut | inhibition, %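 (about 12 µg/mL by stock and volumes)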 | 100,000 compounds, 0.43% hits | AID 540299, 2011;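 active = mean of two replicates above 30%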;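 also: 0% = no compound and 100% = wells with inactive enzyme; the first replicate is given; strong numbers were not always called active; inactives centre near -10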
MbtI inh – MbtI salicylate synthase inhibitors, primary screen, biochemical, fluorescence intensity | inhibition, %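 (about 17 µg/mL by stock and volumes)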 | AID 493033, 2011 | purified MbtI enzyme, fluorescence intensity read-out | 100,000 compounds, 0.89% hits | P9WFX0;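 active = above 50% in both replicates, above 80% if mildly self-fluorescent; inactive = the rest, strongly fluorescent compounds included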;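 also: 0% = mean of negative and 100% = mean of positive controls; one replicate is shown; some compounds called inactive have numbers as strong as hits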
Target sequence (P9WFX0 whole entry, looked up): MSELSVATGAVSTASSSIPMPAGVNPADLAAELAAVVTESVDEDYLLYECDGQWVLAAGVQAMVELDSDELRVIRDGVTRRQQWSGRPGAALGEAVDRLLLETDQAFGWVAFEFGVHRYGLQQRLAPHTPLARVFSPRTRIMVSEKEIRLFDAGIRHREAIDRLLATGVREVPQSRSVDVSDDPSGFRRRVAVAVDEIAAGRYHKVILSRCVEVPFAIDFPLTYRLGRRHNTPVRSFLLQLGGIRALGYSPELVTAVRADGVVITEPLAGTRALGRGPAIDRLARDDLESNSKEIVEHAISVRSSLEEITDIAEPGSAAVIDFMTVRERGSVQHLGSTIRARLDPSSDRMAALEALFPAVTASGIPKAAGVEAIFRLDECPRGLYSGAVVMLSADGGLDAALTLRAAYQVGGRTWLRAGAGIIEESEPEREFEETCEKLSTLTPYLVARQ
PV pol inh – poliovirus RdRp elongation inhibitors, primary screen, biochemical, fluorescence polarization, total intensity; Genome polyprotein (Poliovirus type 1 (strain Mahoney)), P03300; poliovirus polymerase elongation; hits give low values; % elongation, % (compound at 16.7 µg/mL); 150,000 compounds, 0.66% hits; AID 588519, 2011; in the data active = % elongation below about 90%; also: some results filed as inactive read as strong as hits
Target sequence (P03300 1749-2209 limits assumed): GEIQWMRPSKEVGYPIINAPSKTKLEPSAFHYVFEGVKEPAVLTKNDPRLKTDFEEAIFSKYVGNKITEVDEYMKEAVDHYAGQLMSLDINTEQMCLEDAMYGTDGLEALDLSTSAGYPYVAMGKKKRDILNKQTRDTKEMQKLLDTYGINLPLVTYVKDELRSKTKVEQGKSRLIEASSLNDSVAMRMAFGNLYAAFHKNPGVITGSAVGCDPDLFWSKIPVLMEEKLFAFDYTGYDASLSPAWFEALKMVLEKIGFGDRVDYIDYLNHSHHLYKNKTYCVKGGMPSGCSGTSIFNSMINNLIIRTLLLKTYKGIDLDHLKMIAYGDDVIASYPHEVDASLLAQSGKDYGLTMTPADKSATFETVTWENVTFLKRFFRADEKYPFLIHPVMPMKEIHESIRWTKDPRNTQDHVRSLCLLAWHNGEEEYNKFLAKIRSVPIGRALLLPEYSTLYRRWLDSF
PV pol inh intensity – further read-out of PV pol inh, marked with its call; % elongation; measured here: total intensity read-out; formula for this scale not given here;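 total fluorescence in place of polarization; lower means less elongation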
The depositor's hits bear a star.

`CCN(c1ccc2oc3ccccc3c2c1)S(=O)(=O)c1ccc(C#N)cc1` gave Mtb MenB inh -13, MbtI inh 4, PV pol inh 109 and PV pol inh intensity 117.
CCN1CCN(Cc2ccc(NC(=O)c3cn(-c4cccc(OC)c4)c(=O)c4ccccc34)cc2)CC1 was read as Mtb MenB inh -11, MbtI inh -13, PV pol inh 100 and PV pol inh intensity 101.
Screening Cc1ccc(Cl)cc1N1CCN(C(=O)CCN2C(=S)NC(C)(C)CC2C)CC1 (configuration not stated) returned Mtb MenB inh -21, MbtI inh 16, PV pol inh 100 and PV pol inh intensity 102.
Screening CC(C)(C)c1ccc(C(=O)Nc2ccc(NC(=O)c3ccccc3F)cc2)cc1 returned Mtb MenB inh 15, MbtI inh 23, PV pol inh 100 and PV pol inh intensity 104.
Screening O=c1cc(CSc2cccc3cccnc23)c2ccc(O)cc2o1 returned Mtb MenB inh -42, MbtI inh -24, PV pol inh 115 and PV pol inh intensity 141.
`CC1(C)OC(=O)N(CCCC(=O)O)C1(C)O` (configuration not stated) gave Mtb MenB inh -6, PV pol inh 109 and PV pol inh intensity 108.
`CC(C)CN(CC(C)C)C(=O)COc1ccc(C(C)(C)C)cc1` gave Mtb MenB inh -2, PV pol inh 107 and PV pol inh intensity 113.
Cc1cc(-c2nc(-c3ccc(C(F)(F)F)cc3)no2)no1 was read as Mtb MenB inh 1, MbtI inh 4, PV pol inh 103 and PV pol inh intensity 103.
COC(=O)c1cccc(S(=O)(=O)N2CCCCC2)c1 was read as Mtb MenB inh -13, MbtI inh -10, PV pol inh 99 and PV pol inh intensity 104.
`COc1cc(/C=C(/Sc2nnc(-c3ccc(F)cc3)o2)C(=O)O)ccc1OC(F)F` gave Mtb MenB inh -2, MbtI inh -19, PV pol inh 102 and PV pol inh intensity 98.

By substructure: the compounds so far containing nitrogen in an aromatic ring (4)
CCN1CCN(Cc2ccc(NC(=O)c3cn(-c4cccc(OC)c4)c(=O)c4ccccc34)cc2)CC1 was read as Mtb MenB inh -11, MbtI inh -13, PV pol inh 100 and PV pol inh intensity 101.
Screening O=c1cc(CSc2cccc3cccnc23)c2ccc(O)cc2o1 returned Mtb MenB inh -42, MbtI inh -24, PV pol inh 115 and PV pol inh intensity 141.
Cc1cc(-c2nc(-c3ccc(C(F)(F)F)cc3)no2)no1 was read as Mtb MenB inh 1, MbtI inh 4, PV pol inh 103 and PV pol inh intensity 103.
`COc1cc(/C=C(/Sc2nnc(-c3ccc(F)cc3)o2)C(=O)O)ccc1OC(F)F` gave Mtb MenB inh -2, MbtI inh -19, PV pol inh 102 and PV pol inh intensity 98.

New compounds follow
Screening O=C1CSC(c2ccccc2)c2c(-c3ccccc3)nn(-c3ccccc3)c2N1 (configuration not stated) returned Mtb MenB inh -10, PV pol inh 104 and PV pol inh intensity 108.
For FC(F)(F)c1ccc(-c2csc(-c3ccc(-c4csnn4)cc3)n2)cc1 the results were Mtb MenB inh -18, MbtI inh -1, PV pol inh 105 and PV pol inh intensity 109.
`CC1(C)C(=O)C2(C(=O)O)CCC1C2` (configuration not stated) gave Mtb MenB inh -16, MbtI inh 11, PV pol inh 104 and PV pol inh intensity 103.
Screening Cn1c(=O)[nH]c(=O)c2[nH]c(Cc3ccccc3)nc21 returned Mtb MenB inh -17, MbtI inh 0, PV pol inh 99 and PV pol inh intensity 103.
`NC(=O)CN1C(=O)C(O)(CC(=O)/C=C\c2ccccc2)c2ccccc21` (configuration not stated) gave Mtb MenB inh 43*, MbtI inh 22, PV pol inh 102 and PV pol inh intensity 100.
CCOC(=O)C1CCN(C(=O)CN(c2cc(Cl)ccc2OC)S(C)(=O)=O)CC1 was read as Mtb MenB inh -2, MbtI inh -12, PV pol inh 104 and PV pol inh intensity 102.
`CCCn1c(CSCc2ccccc2F)nc2cc(S(=O)(=O)N3CCOCC3)ccc21` gave Mtb MenB inh -12, MbtI inh 1, PV pol inh 104 and PV pol inh intensity 99.
`CCCN(Cc1nnc(-c2ccccc2Cl)o1)C(=O)c1cccc(S(=O)(=O)N(C)C)c1` gave Mtb MenB inh -7, MbtI inh -4, PV pol inh 108 and PV pol inh intensity 119.
`Cc1ccc(S(=O)(=O)NCC(O)Cn2c3ccccc3c3ccccc32)cc1` (configuration not stated) gave Mtb MenB inh -26, MbtI inh 53, PV pol inh 102 and PV pol inh intensity 105.
COC(CNC(=O)c1cc2c(s1)CSC2)OC was read as Mtb MenB inh 0, MbtI inh inactive, PV pol inh 92 and PV pol inh intensity 92.

Next section, overlapping the part above by two compounds.
`Cc1ccc(S(=O)(=O)NCC(O)Cn2c3ccccc3c3ccccc32)cc1` (configuration not stated) gave Mtb MenB inh -26, MbtI inh 53, PV pol inh 102 and PV pol inh intensity 105.
COC(CNC(=O)c1cc2c(s1)CSC2)OC was read as Mtb MenB inh 0, MbtI inh inactive, PV pol inh 92 and PV pol inh intensity 92.
Screening O=C1NC(=O)C(=CN2CCC(Cc3ccccc3)CC2)C(=O)N1 returned Mtb MenB inh -8, MbtI inh 32, PV pol inh 100 and PV pol inh intensity 101.
For Cc1nn(C2CCS(=O)(=O)C2)c(Cl)c1/C=C/C(=O)OCC(=O)c1ccc(Cl)s1 (configuration not stated) the results were Mtb MenB inh -10, MbtI inh 19, PV pol inh 116 and PV pol inh intensity 118.
CCOc1ccc(Br)cc1S(N)(=O)=O was read as MbtI inh -1, PV pol inh 99 and PV pol inh intensity 101.
`O=P(c1ccccc1)(c1ccccc1)C(O)c1cccs1` (configuration not stated) gave Mtb MenB inh 5, MbtI inh -13, PV pol inh 99 and PV pol inh intensity 103.
Screening O=C1NC(=O)C(=Cc2cccc3ccccc23)C(=O)N1 returned Mtb MenB inh -36, MbtI inh 92, PV pol inh 112 and PV pol inh intensity 117.
O=C(O)CSCc1nc2ccccc2[nH]1 was read as Mtb MenB inh -16, MbtI inh -6, PV pol inh 99 and PV pol inh intensity 97.
`COC(CNC(=S)Nc1cccc(C(F)(F)F)c1)OC` gave Mtb MenB inh 9, MbtI inh 4, PV pol inh 99 and PV pol inh intensity 100.
Screening Fc1cc(Br)ccc1N=Cc1ccncc1 returned MbtI inh -16, PV pol inh 102 and PV pol inh intensity 107.
`COc1ccc2nc3oc(C(=O)Nc4ccc(C(C)C)cc4)cc3cc2c1` gave Mtb MenB inh -18, MbtI inh 20, PV pol inh 103 and PV pol inh intensity 104.
`O=C(CCN1C(=O)c2ccccc2S1(=O)=O)Nc1nc(-c2ccccc2)cs1` gave Mtb MenB inh -18, MbtI inh -7, PV pol inh 103 and PV pol inh intensity 106.
Screening c1cnc2c(Oc3ncnc4c3oc3ccccc34)cccc2c1 returned Mtb MenB inh -33, MbtI inh -8, PV pol inh 101 and PV pol inh intensity 98.
For c1cnc(N2CCN(Cc3ccc4c(c3)OCO4)CC2)nc1 the results were Mtb MenB inh -4, MbtI inh 6, PV pol inh 99 and PV pol inh intensity 100.
Screening c1ccc(-c2n[nH]c3ccccc23)cc1 returned Mtb MenB inh -25, MbtI inh 3, PV pol inh 102 and PV pol inh intensity 96.
`Cc1ccccc1Nc1n[nH]c(=S)s1` gave Mtb MenB inh -55, MbtI inh 94, PV pol inh 92 and PV pol inh intensity 100.
`Cc1cccc(N(C)C(=O)c2cccc3c2SCCC3=O)c1` gave Mtb MenB inh -22, MbtI inh -6, PV pol inh 105 and PV pol inh intensity 106.
Screening O=C(COc1ccccc1)OC(C(=O)c1ccccc1)c1ccccc1 (configuration not stated) returned MbtI inh -8, PV pol inh 102 and PV pol inh intensity 108.
For O=C(Nc1ccccc1)Nc1cccc2ccccc12 the results were Mtb MenB inh 2, PV pol inh 103 and PV pol inh intensity 104.
Screening COc1ccccc1-c1nnc(-c2ccccc2O)o1 returned Mtb MenB inh -8, PV pol inh 107 and PV pol inh intensity 118.
`O=C(O)CCc1oc2cc(O)ccc2c(=O)c1-c1nc2ccccc2[nH]1` gave Mtb MenB inh -16, MbtI inh 5, PV pol inh 102 and PV pol inh intensity 108.
For O=C(O)c1cnc2sccn2c1=O the results were Mtb MenB inh 10, MbtI inh 16, PV pol inh 102 and PV pol inh intensity 103.
Screening CCSc1nc2cc(S(=O)(=O)N(CC)CC)ccc2n1CC returned Mtb MenB inh -5, MbtI inh 9, PV pol inh 104 and PV pol inh intensity 97.
`N#CCCn1c(Sc2ncnc3sc4c(c23)CCCC4)nc2ccccc21` gave Mtb MenB inh -3, MbtI inh 2, PV pol inh 116 and PV pol inh intensity 126.
COC(=O)c1cc2oc(C)cc2n1CC(=O)Cc1ccc(OC)cc1OC was read as Mtb MenB inh 5, MbtI inh 10, PV pol inh 104 and PV pol inh intensity 107.
Screening Brc1cccc(OCc2nnc3n2CCC3)c1 returned Mtb MenB inh 3, MbtI inh -7, PV pol inh 104 and PV pol inh intensity 107.
`N#C/C(=C/c1ccc(N2CCCCC2)o1)C(=O)NCCc1c[nH]c2ccccc12` gave Mtb MenB inh -33, MbtI inh -5, PV pol inh 78 and PV pol inh intensity 191.
`CSc1nnc(SC)n1CCNC(=O)c1c(Cl)cccc1Cl` gave Mtb MenB inh -67, MbtI inh -6, PV pol inh 110 and PV pol inh intensity 110.
`O=C(O)c1cccc(NC(=O)c2cccc(S(=O)(=O)N3CCCCC3)c2)c1` gave Mtb MenB inh -19, MbtI inh 46, PV pol inh 105 and PV pol inh intensity 105.
`O=C(NCCSc1nnnn1-c1ccccc1)C(c1ccccc1)c1ccccc1` gave Mtb MenB inh -23, MbtI inh -4, PV pol inh 101 and PV pol inh intensity 103.
For CC1=NN(C(=O)CSc2nc3ccccc3s2)C(C)(O)C1 (configuration not stated) the results were Mtb MenB inh -4, PV pol inh 109 and PV pol inh intensity 107.
CN1CCC(N(C)C(=O)CNC(=O)c2ccc(Oc3ccccc3)cc2)CC1 was read as Mtb MenB inh 6, MbtI inh 48, PV pol inh 105 and PV pol inh intensity 97.
`CCN(CC)c1ccc(NC(=O)COc2ccccc2OC)cc1` gave Mtb MenB inh -5, MbtI inh -8, PV pol inh 105 and PV pol inh intensity 115.
`Cc1nn(-c2ccccc2)c(-n2cccc2)c1CN` gave Mtb MenB inh 20, MbtI inh 0, PV pol inh 102 and PV pol inh intensity 99.
For CN(Cc1ccccc1)C(=O)CCc1nc2cccnc2n1-c1ccccc1 the results were Mtb MenB inh -1, MbtI inh -2, PV pol inh 99 and PV pol inh intensity 105.
CC(C)C(=O)N(C)C1(c2ccccc2Cl)CCCCC1=O (configuration not stated) was read as MbtI inh -1, PV pol inh 104 and PV pol inh intensity 98.
Screening O=C1Nc2ccccc2SC1N1CCCCC1 (configuration not stated) returned Mtb MenB inh -22, MbtI inh 0, PV pol inh 103 and PV pol inh intensity 103.
CCOC(=O)c1sc2ccc(S(=O)(=O)N3CCOCC3)cc2c1N was read as Mtb MenB inh 2, MbtI inh -36, PV pol inh 104 and PV pol inh intensity 105.
Screening COc1ccccc1OCCn1c(=N)n(C)c2ccccc21 returned Mtb MenB inh 11, MbtI inh 3, PV pol inh 99 and PV pol inh intensity 101.
Screening CC(C)CN(CC(C)C)S(=O)(=O)c1ccc(C(=O)Nc2nnc(-c3ccccn3)o2)cc1 returned Mtb MenB inh -13, MbtI inh -2, PV pol inh 102 and PV pol inh intensity 101.
N#Cc1ccccc1NC(=O)CSc1nc(-c2ccccc2)c(-c2ccccc2)o1 was read as Mtb MenB inh 1, MbtI inh 117, PV pol inh 96 and PV pol inh intensity 96.
`CCOc1ccc(OCCOc2ccc(CN3CCN(CC(=O)N(C)C)CC3)cc2OCC)cc1` gave Mtb MenB inh -2, MbtI inh -5, PV pol inh 94 and PV pol inh intensity 99.
For Cc1ccc(-c2nc(=S)c3c(n2CCCO)CCCC3)cc1 the results were Mtb MenB inh -12, MbtI inh 2, PV pol inh 101 and PV pol inh intensity 102.
`CSc1ccc(/C=C/C(=O)OCC(N)=O)cc1` gave Mtb MenB inh -9, MbtI inh 102, PV pol inh 104 and PV pol inh intensity 98.
Screening CSc1ncc(C(=O)NCCc2ccccc2)c(C)n1 returned Mtb MenB inh 0, MbtI inh -11, PV pol inh 104 and PV pol inh intensity 117.

Screening results from PubChem BioAssay.
